# Screening data deposited in PubChem by PCMD.
# Calb biofilm kill – clotrimazole potentiators killing C. albicans biofilm, primary screen, 4-compound mixtures; inhibition, % at 7.6 µM; C. albicans biofilm persisters + clotrimazole, fluorescence viability; primary screen in compound mixtures of four per well; 120,000 compounds, 0.02% hits;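 active = inhibition above 30.3% in the primary screen of four-compound pools, then above 30% when the compound was retested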;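 also: compounds exposed to preformed 24 h biofilms for 48 h; the number belongs to the whole pool; some results filed as inactive read as strong as hits; inactives centre near 12; 0% = biofilm with clotrimazole alone and 100% = kill control; retested singly at about 60 µM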
#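 Probe or stimulus – Clotrimazole 50 µg/mL co-treatment · System – C. albicans biofilms · Schedule – 24 h biofilm formation, then 48 h compound exposure, 37 °C · Evaluation – percent inhibition of biofilm viability · Technique – 2-h Alamar Blue fluorescence, 535/590 nm excitation/emission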
# The depositor's hits bear a star. An excerpt; count on the stated rates, not on these rows.
SMILES,Calb biofilm kill
Cc1cccc(/N=C/c2c(O)n(Cc3ccc4c(c3)OCO4)c(=O)c3ccccc23)n1,8
C=CCc1cc(Cl)ccc1OCCCNCCO,31
CC(C)CN1CCN(Cc2ccc3ncccc3c2)CC1CCO (stereo not given),14
O=C(Nc1ccnc(-c2ccncc2)n1)C1CC1,12
O=C(COC(=O)CC(c1ccccc1)c1ccccc1)NCc1ccccc1,3
O=C(NC1(C(F)(F)F)NC(=O)N(c2ccc(F)cc2)C1=O)c1cccs1 (stereo not given),3
CCN(C(=O)CSc1nc2ccccc2c(=O)n1C(C)COC)C1CCS(=O)(=O)C1 (stereo not given),17
CCOC(=O)C/C(C)=N/NC(=O)Nc1ccccc1,15
Cc1ccc(-c2nn(CCC(=O)Nc3cccnc3)c(=O)c3ccccc23)cc1,9
CCOc1ccccc1-n1c(SCC(=O)N2CCCc3ccccc32)nnc1-c1cccnc1,20
O=C(c1nc2ccccn2c1CNCCOc1cccnc1)N1CCOCC1,12
CC(=O)c1ccc(NC(=O)C(NC(=O)c2ccccc2)=C(C)C)cc1,6
CCNS(=O)(=O)c1ccc(CCC(=O)Nc2ccccc2C(=O)OC)cc1,12
CC(C)C12CN3CCN(CC(C3)/C1=N\NC(=O)Nc1ccccc1)C2,12
CCSc1ncnc2sc(C)c(C)c12,12
O=C(COC(=O)/C=C/c1ccccc1[N+](=O)[O-])NC1CCS(=O)(=O)C1 (stereo not given),2
COc1cccc(NC(=O)C(C)SCc2ccccc2)c1 (stereo not given),16
COc1ccc(OC)c(/C=N/NC(=O)C(=O)N2CCCC2)c1,26
Cc1ccc(Cl)cc1NC(=O)CCN1C(=O)C2C3CCC(C3)C2C1=O (stereo not given),23
COc1ccc(-n2c(=S)[nH]c(=O)c3cccnc32)cc1,0

# A different layout for part of the listing above:
SMILES | Calb biofilm kill
O=C(COC(=O)CC(c1ccccc1)c1ccccc1)NCc1ccccc1 | 3
O=C(NC1(C(F)(F)F)NC(=O)N(c2ccc(F)cc2)C1=O)c1cccs1 (stereo not given) | 3
CCN(C(=O)CSc1nc2ccccc2c(=O)n1C(C)COC)C1CCS(=O)(=O)C1 (stereo not given) | 17
CCOC(=O)C/C(C)=N/NC(=O)Nc1ccccc1 | 15

# Arranged by SMILES length (ascending): part of the list above
SMILES,Calb biofilm kill
CCSc1ncnc2sc(C)c(C)c12,12
C=CCc1cc(Cl)ccc1OCCCNCCO,31
O=C(Nc1ccnc(-c2ccncc2)n1)C1CC1,12
CCOC(=O)C/C(C)=N/NC(=O)Nc1ccccc1,15
CC(C)CN1CCN(Cc2ccc3ncccc3c2)CC1CCO (stereo not given),14
COc1ccc(-n2c(=S)[nH]c(=O)c3cccnc32)cc1,0
O=C(c1nc2ccccn2c1CNCCOc1cccnc1)N1CCOCC1,12
O=C(COC(=O)CC(c1ccccc1)c1ccccc1)NCc1ccccc1,3
CC(=O)c1ccc(NC(=O)C(NC(=O)c2ccccc2)=C(C)C)cc1,6
Cc1ccc(-c2nn(CCC(=O)Nc3cccnc3)c(=O)c3ccccc23)cc1,9
O=C(NC1(C(F)(F)F)NC(=O)N(c2ccc(F)cc2)C1=O)c1cccs1 (stereo not given),3
CCOc1ccccc1-n1c(SCC(=O)N2CCCc3ccccc32)nnc1-c1cccnc1,20
CCN(C(=O)CSc1nc2ccccc2c(=O)n1C(C)COC)C1CCS(=O)(=O)C1 (stereo not given),17
O=C(COC(=O)/C=C/c1ccccc1[N+](=O)[O-])NC1CCS(=O)(=O)C1 (stereo not given),2
Cc1cccc(/N=C/c2c(O)n(Cc3ccc4c(c3)OCO4)c(=O)c3ccccc23)n1,8

# The results go on.
SMILES,Calb biofilm kill
Cc1ccc(NC2=C(Cl)C(=O)OC2NC(=O)c2ccccc2)cc1 (stereo not given),8
C[C@@H]1C[C@@H]2O[C@H]2/C=C\C=C\C(=O)Cc2c(Cl)c(O)cc(O)c2C(=O)O1,15
Cc1csc(NC(=O)c2cc([N+](=O)[O-])cc([N+](=O)[O-])c2)n1,8
COC(=O)N/N=C(\C)c1cccs1,12
Cn1cnc([N+](=O)[O-])c1Oc1ccc2ccccc2c1,8
O=C(CCSc1ccc(Cl)cc1)NCc1ccncc1,19
CCn1c(COc2cccc3cccnc23)nnc1SC(F)F,18
COc1ccc(CN2CCCCC2C(=O)Nc2ccc(OC)c(OCC(C)C)c2)cc1OC (stereo not given),20
COc1ccc2c(c1)CC1c3c(cc4c(c3-2)OCO4)CC[N+]1(C)[O-] (stereo not given),13
O=C(NCCn1cc(SCc2ccc(F)cc2)c2ccccc21)c1c(F)cccc1F,4
COc1cccc(C2C3=C(CCCC3=O)NC3=C2C(=O)c2ccccc23)c1 (stereo not given),-5
CCCc1nnc(NC(=O)CCC(=O)N2CCN(C3c4ccccc4-c4ccccc43)CC2)s1,4
O=c1[nH]c(CSc2ccccn2)nc2c1cnn2-c1ccccc1,13
CCOc1ccc(/C=N/NC(=O)c2nnn(-c3nonc3N)c2COc2ccc(F)cc2)cc1,27
Cc1c(NC(=O)CSc2nnnn2-c2ccc(C(=O)O)cc2)c(=O)n(-c2ccccc2)n1C,25
COc1ccc(C(=O)N/C(=C\c2ccccc2)C(=O)NC(CC(C)C)C(=O)O)cc1 (stereo not given),7
Fc1ccc(NC(=S)Nc2cccnc2)c(F)c1F,9
O=C(NCc1cccc(Cl)c1)NC(=O)c1csc([N+](=O)[O-])c1,21
Cc1ccc(-n2ncc3c(=O)n(CC(=O)N4CCN(c5ccccc5F)CC4)cnc32)cc1C,9
CC(C)=CCC/C(C)=C/CC/C(C)=C/CC/C(C)=C/CC1=C(C)C(=O)c2ccccc2C1=O,32
COc1ccc(NC(=O)c2ccc(NC(=O)CSc3nccc(=O)[nH]3)cc2)cc1,19
COc1cccc(CN2CCCC(CNC(=O)c3ccc(F)cc3)C2)c1OC (stereo not given),18
COc1ccc(/C=N/NC(=S)NCc2ccccc2)cc1OC,18
O=C(O)CCc1nn2c3ccccc3nc2n(Cc2ccccc2)c1=O,13
COc1ccc(-n2ccnc2SCC(=O)NCc2ccccc2)c(OC)c1,16
CC(C)(C)C(=O)Nc1ccc(-c2cc3cc(Cl)ccc3o2)cc1,24
CN(C)S(=O)(=O)c1ccc(Cl)c(NC(=O)CSc2nc3ccccc3c(=O)n2CCCN2CCOCC2)c1,9
COC(=O)c1[nH]c(C)c(/C(O)=C2\C(=O)C(=O)N(CCN3CCOCC3)C2c2ccco2)c1C (stereo not given),8
CCOc1ccc(CNC(=O)CCc2cn(C)c3ccccc23)cc1OC,15
COc1ccc(/C=C/C(=O)N2CCN(S(=O)(=O)c3ccccc3)CC2)cc1OC,5
c1ccc(Cn2ncc3c(Nc4ccccc4)ncnc32)cc1,20
COc1cc(C(N)=O)cc(Br)c1OCc1ccccc1,7
O=C1CN(C(=O)c2ccc(F)c(S(=O)(=O)N3CCOCC3)c2)c2ccccc2N1,6
O=C(NCc1cccnc1)c1cc(Sc2cccc(Cl)c2)nc2ccccc12,6
O=C(OCc1cccc([N+](=O)[O-])c1)c1ccc2ccccc2n1,-8
O=c1c2ccccc2oc2nc(-c3ccco3)n(-c3ccccc3)c(=O)c12,11
C/C(Cc1ccccc1)=N\NC(=O)CNC(=O)c1cccc(Cl)c1,-1
CCOC(=O)CNC(=O)N1CCCC(C(=O)c2ccc3c(c2)OCO3)C1 (stereo not given),4
C=COCCNC(=S)N1CCOCCOCCN(C(=S)NCCOC=C)CCOCC1,25
CCNc1ccc(S(=O)(=O)N(C)C)cc1NCC(=O)Nc1ccc(Br)cc1F,10
COc1ccc(OCC(=O)Nn2c(-c3ccc(C)cc3)nc3ccccc3c2=O)cc1,16
O=C(O)c1ccc(-n2nc(C(F)(F)F)c3c2CCCC3)cc1,13
CNc1nc(Cl)c(SC)c(N2CCOCC2)n1,13
CCN1/C(=C2\OC(=S)N(C)C2=O)C=Cc2ccccc21,18
O=C(/C=C/c1ccco1)NCC(=O)N/N=C/c1ccc([N+](=O)[O-])cc1,-5
Nc1ccc(Br)c[n+]1Cc1cccc2cccnc12,18
Cc1nc2ccccc2nc1OCc1cccc(Cl)c1,-2
CC(=O)Nc1ccc(N(C(=O)c2ccco2)C(C(=O)NC2CCCC2)c2cccs2)cc1 (stereo not given),4
O=C(O)c1ccc(-c2nc(-c3ccccc3)cs2)cc1,17
COc1ccc(C(=O)NCC(=O)NCC(=O)OCC(=O)c2cccs2)cc1,13
CC(C)[C@@H]1NC(=O)c2cc([N+](=O)[O-])cc(I)c2OCC[C@@H](C(N)=O)NC(=O)[C@H](CCC(=O)O)NC1=O,8
O/N=C/c1ccn(-c2ccc(Br)cc2)c1,16
Cc1ccc(CNC(=S)N(C)C)cc1,16
CCN1CCCC1CN(Cc1cc2ccc(C)cc2[nH]c1=O)C(=S)Nc1ccc(F)cc1 (stereo not given),-13
Cc1c(NC(=O)CN2C(=O)NC(C)(c3ccccc3)C2=O)c(=O)n(-c2ccccc2)n1C (stereo not given),27
CC(C)NCC(O)COc1cccc2ccccc12 (stereo not given),17
O=[N+]([O-])c1ccccc1SNc1ccccn1,15
COc1ccc(C)cc1S(=O)(=O)N(C)CC(=O)N1CCN(c2ccccc2)CC1,7
O=C(NN1C(=O)C2C(c3ccccc3)C=CC(c3ccccc3)C2C1=O)c1ccccc1 (stereo not given),19
Cc1ccc(S(=O)(=O)N2CCN(CC(=O)N/N=C/c3ccccc3OCC(=O)O)CC2)cc1,13

# (list continues)
SMILES,Calb biofilm kill
Cc1nn(CCC#N)c(C)c1Oc1ccccc1O,20
COc1ccccc1CNC(=O)CSc1nnc2c(Cl)cc(C(F)(F)F)cn12,24
CCOC(=O)C1(Cc2ccc(Cl)cc2)CCN(C(=O)C2CCCO2)CC1 (stereo not given),12
CC(C)c1onc(C(=O)Nc2cccnc2Cl)c1[N+](=O)[O-],23
COc1c2ccccc2c(OC)c2ccccc12,23
C/C(=C\c1cccs1)C(=O)c1c(C)cc(C)[nH]c1=O,18
O=S(=O)(Cc1c(F)cccc1Cl)c1ncn[nH]1,18
Oc1ccc(F)c2cccnc12,12
Cc1ccc(C(=O)NNC2=Nc3cc([N+](=O)[O-])ccc3OC2)cc1,26
Cc1[nH]c2ccccc2c1/C=N\NC(=O)Cn1nnc(-c2ccccc2)n1,21
OCC1(Cc2ccc(Cl)cc2)CCN(CCCc2ccccc2)CC1,10
FC(F)(F)c1cnc(N2CCSCC2)c(Cl)c1,15
CCOC(=O)c1c(C)[nH]c(C)c1C(=O)COC(=O)/C=C/c1cccc(F)c1,19
Cc1cc(C)cc(C(=O)NC(CC(N)=O)c2ccc(NC3CCCCCC3)c([N+](=O)[O-])c2)c1 (stereo not given),13
COc1cc(C(=O)Nc2ccc(S(=O)(=O)Nc3ncccn3)cc2)c([N+](=O)[O-])cc1OC,17
O=C(O)[C@H]1Cc2ccccc2CN1S(=O)(=O)c1ccc(F)cc1,21
COc1ccccc1-n1c(SCC(=O)c2ccc(O)cc2O)nc2cc([N+](=O)[O-])ccc21,10
C=CCOc1ccccc1CNc1cccc(F)c1,10
Cc1cc(/C=C2\NC(=O)NC2=O)c(C)n1-c1cccnc1,14
Cc1ccc(S(=O)(=O)N(C)/N=C/c2ccc(C(=O)O)cc2)cc1,8
Cc1cc[n+](CC(=O)c2ccccc2)c2ccccc12,3
CCn1c(=N)n(CC(=O)c2ccc(Br)s2)c2ccccc21,11
COc1cc(/C=N/O)cc(Br)c1OC,11
O=C(Cc1ccc(Cl)cc1)N/N=C/c1ccncc1,20
O=C(/C=C/c1ccc([N+](=O)[O-])cc1)NC1CC2CCC1C2 (stereo not given),3
COc1ccc(C2SCC(=O)N2c2nnc(C34CC5CC(CC(C5)C3)C4)s2)cc1 (stereo not given),11
Fc1ccc(NC(=S)Nc2cccnc2)cc1Cl,2
COc1ccc(/C=C2\SC(=S)N(CCCC(=O)Nc3ccc(O)cc3)C2=O)cc1,15
O=C(Nc1c(S(=O)(=O)c2ccc(Cl)cc2)csc1Br)c1ccccc1Cl,23
CCn1nc(C)c(NS(=O)(=O)c2ccc(C)cc2)c1C,12
COc1ccccc1NC(=O)c1coc(=O)c(Br)c1,26
Cn1c(=O)n(C)c2cc([N+](=O)[O-])c(N3CCN(C(=O)c4cccc(Cl)c4)CC3)cc21,6
Cc1ccc(N2C(=O)C(O)(C(F)(F)F)C3=C2CC(C)(C)CC3=O)cc1 (stereo not given),9
CCN(CC)c1ccc(/C=N/NC(=O)c2cnccn2)cc1,11
O=C(NC1CCCCC1)C(c1ccc2ncccc2c1)N(Cc1ccc2c(c1)OCO2)C(=O)c1ccc2c(c1)OCCO2 (stereo not given),13
CN(C(=O)Nc1ccc(C(C)(C)C)cc1)C1CCCCC1,20
CN(C)C=Nc1nc2ccccc2nc1N1CCCC1,15
O=C(CNC(=O)c1cccc(F)c1)OCC(=O)N1CCCCC1,11
Cc1cc(=O)n2[nH]c(NCc3c(F)cccc3Cl)nc2n1,17
COc1ccc(/C=N/n2c(C)cc(C)cc2=O)cc1,3
C/C=C(\C)C(=O)Nc1cccc(C2=NOC3(C2)C[C@H](C(N)=O)N(C(=O)CC#N)C3)c1 (stereo not given in full),13
Cc1ccc(-c2nn(-c3ccccc3)cc2C(=O)OCC(=O)Nc2ncc(Cl)cc2Cl)cc1,3
Cc1ccc(CNC(=O)Cn2nnc3ccccc3c2=O)cc1,15
C=CCc1cccc(C=Nc2ccc(Br)cc2)c1O,23
COc1ccc(/C=N/NC(=O)c2ccc(CSc3nc(C)cc(C)n3)cc2)cc1O,16
O=C(Cc1cccs1)Nc1nnc(SCc2ccc(F)cc2)s1,6
Cc1ccccc1-c1ccc(=O)n(CC(=O)Nc2ccc(S(=O)(=O)N(C)C)cc2)n1,8
NC(=O)N\N=C/C=C/C=C/c1ccc(F)cc1,25
COc1c(F)c(F)c(C(=O)Nc2ccc(-c3nc4ccccc4[nH]3)cc2)c(F)c1F,8
COc1cccc(NC(=O)c2ccc(-c3ccc([N+](=O)[O-])cc3)o2)c1,7
COC(=O)c1cccc(Cn2nc(C)c([N+](=O)[O-])c2C)c1,9
COC(=O)c1sc(NC(=O)c2ccc([N+](=O)[O-])o2)c(C#N)c1C,12
